Menin-MLL FL inh: menin-MLL binding inhibition, fluorescein peptide; Fluorescence polarization, fluorescein-MLL peptide displacement from menin; FP activity change, % at 61.4 µM; 290,000 tested, under 10 active; inconclusive = falling polarisation curve, or a change in total fluorescence; inactive = total fluorescence flat and polarisation flat or rising; no compound was filed as active; the % refers to the polarisation; negative = inhibition;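 note: % of control where 0% means no effect; inhibitors lower the polarisation; unlabelled MLL peptide was the positive control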
gsp antag: gsp mutant antagonism; Potency, µM (highest dose often 76.9 µM), without a hit: at the top dose activity change, negative = inhibition, usual class: inhibitors; 340,000 tested, 0.4% active; gsp-mutant cells, cAMP HTRF, 30 min; control for the full effect not named in the record; active = falling curve of any shape with a large fitted effect; inconclusive = falling curve, mostly with a smaller effect; inactive = flat or rising curve; cell line not stated here;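 note: intracellular cAMP measured with PDE inhibitor Ro 20-1724 present during compound exposure; potency is the fitted concentration of half-maximal effect; % is set by controls: 0 for no effect and ±100 for the full control effect; nearly all actives have a fitted effect of over 65% in size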
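Cells, 2000/well, grown 16–24 h in DMEM 10% FBS with 0.5 mg/ml G418, then compounds plus […] (300 uM addition stock), 30 min at 37C. cAMP read by HTRF (cAMP-d2 and anti-cAMP antibody-K in lysis buffer) after 30 min RT.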
gsp agonist: gsp mutant agonism; Potency, µM (top dose mostly 76.9 µM), inactives show at the top dose activation (cAMP increase), hits mostly activators; 340,000 tested, 0.13% active; gsp mutant cells, cAMP HTRF, 30 min; control for the full effect not named in the record; active = well fitted activation curve with a large enough effect; inconclusive = small, poorly fitted or top-dose-only effect, or another doubt; inactive = no such curve, though single readings can be large or run the other way; cell line not stated here;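 note: phosphodiesterase inhibitor Ro 20-1724 added with compounds to block cAMP breakdown; potency is the fitted concentration of half-maximal effect; nearly all actives have a fitted effect of over 60% in size; about a fifth of the inactives were tested at one dose only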
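Cells stably selected in G418 were plated at 2000/well, grown 16-24 hr, then given compounds in DMSO with the PDE inhibitor […] (300 uM solution added) for 30 min at 37C; cAMP was read by HTRF.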
Sfp PPTase inh: blocks B. subtilis Sfp PPTase activity; Q9F4F7; Biochemical Sfp PPTase activity, qHTS; Potency, µM, inactives show max response, negative = inhibition, actives largely listed as inhibitors; 310,000 tested, 3.5% active; AID 1490; active = well fitted inhibition curve with a large enough effect; inconclusive = small, poorly fitted or top-dose-only effect, or another doubt; inactive = no such curve, though single readings can be large or run the other way;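 note: the enzyme is Sfp with the accession as filed and its product quenches rhodamine fluorescence; potency is the fitted concentration of half-maximal effect; 0% = enzyme reaction without inhibitor and -100% = no enzyme wells; top concentration of the series not given in the record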
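Sfp 15 nM + cpd, 15 min RT; start w/ rhodamine-CoA 5 uM, BHQ-2-YbbR 12.5 uM (final); 50 mM Hepes pH 7.6, 10 mM MgCl2, 0.01% NP-40, 0.01% BSA; read 525/598 nm at 0 and 30 min.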
ClpP mod: qHTS Assay for Activators of ClpP; ATP-dependent Clp protease proteolytic subunit (Bacillus subtilis (strain 168)), P80244; purified B. subtilis ClpP, FRET peptide cleavage, 20 min; Potency, µM (doses to about 57.5 µM), inactives show top-dose activity change, negative = active; 340,000 tested, 1.9% active; active = well fitted falling curve with a large enough effect; inconclusive = small, poorly fitted or top-dose-only effect; inactive = no such curve, though single readings can be large or run the other way; note: potency is the fitted concentration of half-maximal effect; the source files actives as falling curves though it sought activators and does not explain the sign; nearly all actives have a fitted effect of over 65% in size; many hits overshoot -100%
Target sequence (P80244 whole entry, looked up): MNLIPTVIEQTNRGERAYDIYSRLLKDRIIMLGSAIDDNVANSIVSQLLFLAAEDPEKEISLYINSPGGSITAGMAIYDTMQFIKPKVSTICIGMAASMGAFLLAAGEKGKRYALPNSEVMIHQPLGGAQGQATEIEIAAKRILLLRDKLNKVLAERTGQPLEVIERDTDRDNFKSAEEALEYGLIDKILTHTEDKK
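Buffer: 100 mM Tris/HCl pH8, 100 mM KCl, 0.05% low protease BSA, 2.5% glycerol, 0.01% Tween-20. ClpP 10 microg/mL final; 20 min RT; delta FRET normalized to ADEP and DMSO controls.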
D2 agonist: human D2 receptor agonism in beta-arrestin assay | P14416 | DiscoveRx PathHunter D2 beta-arrestin, luminescence, 90 min; 100% = 57 uM dopamine signal | activation, % (test concentration not listed) | 360,000 tested, 0.084% active; in the data active = activation above about 40%; inconclusive = about 15% to 40%; inactive = below about 15%; note: compound concentration not given in the record; the text of the record calls up to 30% inactive
Target sequence (P14416 whole entry, looked up): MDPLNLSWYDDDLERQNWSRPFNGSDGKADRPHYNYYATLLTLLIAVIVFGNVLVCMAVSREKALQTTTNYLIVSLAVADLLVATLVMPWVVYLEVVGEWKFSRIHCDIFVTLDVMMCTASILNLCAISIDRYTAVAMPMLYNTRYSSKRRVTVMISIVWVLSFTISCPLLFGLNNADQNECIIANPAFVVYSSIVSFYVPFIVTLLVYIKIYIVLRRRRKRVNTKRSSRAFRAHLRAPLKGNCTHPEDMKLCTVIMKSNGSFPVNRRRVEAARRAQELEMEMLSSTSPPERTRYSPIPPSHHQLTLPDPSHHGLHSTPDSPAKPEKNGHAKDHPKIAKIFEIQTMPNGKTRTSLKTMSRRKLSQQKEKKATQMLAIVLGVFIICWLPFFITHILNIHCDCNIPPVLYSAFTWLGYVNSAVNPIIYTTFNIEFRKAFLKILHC
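Agonist mode: compounds alone added to overnight-plated D2 PathHunter cells for 90 min at 37 C, with 57 uM final dopamine (EC100) defining full response. Beta-arrestin recruitment detected by chemiluminescent reagent, read after 1 h at ambient temperature.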
PINK1 modulator: changes PINK1 expression; PINK1 immunofluorescence, high-content cytometry, 24 h; Potency, µM (series often up to 76.6 µM), without a hit: at the top dose activation (PINK1 increase), hits mostly activators; 410,000 tested, 0.2% active; active = well fitted activation curve with a large enough effect; inconclusive = small, poorly fitted or top-dose-only effect; inactive = flat fitted curve, though single readings scatter; cell line not stated here;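 note: potency is the fitted concentration of half-maximal effect; % of control where 0% means no effect; nearly all actives have a fitted effect of over 65% in size; a mitochondrial uncoupler was the plate control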
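Stable cell line, 250 cells/well, 12 h attachment; compounds pinned at 5 concentrations, 24 h; CCCP control. Fixed with nuclear dye, primary antibodies 12 h at 10 degrees C, secondary plus cell stain; laser-scanning cytometer read.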
* = called active by the depositor; ? = inconclusive; . = no result given; & = joins results of further samples; [ ] = another dose, or the depositor's remark. Compounds were not picked by outcome. Share with any hit: about 5.1%.

SMILES	Menin-MLL FL inh	gsp antag	gsp agonist	Sfp PPTase inh	ClpP mod	D2 agonist	PINK1 modulator
Cc1ccc(S(=O)(=O)NNc2nc3ccccc3nc2C(F)(F)F)cc1	2.7	-5%	11%	11µM*	-1.4%	6.3	0.7%
CCc1nc2ccc(C(=O)NCCc3ccc(OC)c(OC)c3)cc2nc1CC	-0.8	-12%	4%	1%	1.5%&0.8%	3.5	0.8%&0.1%
COc1cccc(CNC(=O)CSCC(=O)Nc2cc(C)on2)c1	.	9%	-6%	.	-2.9%	-6.4	-1.5%
COCC(C)n1c(C)cc(C(=O)COC(=O)c2ccc3ncsc3c2)c1C (configuration not stated)	0.3	-12%	-6%	12%	3.8%	0.4	0.6%
COc1ccc(C(=O)Nc2cccnc2)cc1OC	-0.6	12%	4%	12%	0.7%	-2.1	-0.1%
O=C(CCCc1ccccc1)NCc1ccccn1	-0.1	15%	17%	7%	0.1%	0.1	-1.3%
CS(=O)(=O)N(CC(=O)NCc1ccccc1)Cc1ccc(Cl)cc1	2.0	1%	?	22%	-1.1%	-0.5	-0.3%[38.3 µM]
COc1ccc(C(=O)NNC(=O)CSc2nnc(C(C)C)n2C)cc1	1.1	6%	-9%[15.4 µM]	-3%	.	-3.2	1.4%
CC(C)(Oc1ccc(Cl)cc1)C(=O)N(Cc1ccccc1)c1ccccn1	7.4	-24%	-27%	-1%	-1.7%	1.0	25%
CC(C)Cc1nc2sc3c(c2c(=O)n1N)CC(C)(C)OC3	-1.0	-9%	28%[15.4 µM]	-2%	.	0.9	0.4%
CCCc1nc2ccc(C)cn2c1Cc1ccsc1	.	.	.	.	4.8%	-5.0	-1.1%
Cc1cc(C(=O)NCc2ccc3c(c2)OCO3)c(C)o1	-2.0	4%	7%	0%	.	5.7	-1.0%

Arranged by molecular weight (low to high): part of the list above
SMILES	Menin-MLL FL inh	gsp antag	gsp agonist	Sfp PPTase inh	ClpP mod	D2 agonist	PINK1 modulator
O=C(CCCc1ccccc1)NCc1ccccn1	-0.1	15%	17%	7%	0.1%	0.1	-1.3%
COc1cccc(CNC(=O)CSCC(=O)Nc2cc(C)on2)c1	.	9%	-6%	.	-2.9%	-6.4	-1.5%
CCc1nc2ccc(C(=O)NCCc3ccc(OC)c(OC)c3)cc2nc1CC	-0.8	-12%	4%	1%	1.5%&0.8%	3.5	0.8%&0.1%

Continued:
SMILES	Menin-MLL FL inh	gsp antag	gsp agonist	Sfp PPTase inh	ClpP mod	D2 agonist	PINK1 modulator
O=C(NCc1ccccc1)C(=O)NCC(c1ccco1)N1CCOCC1 (configuration not stated)	-1.7	4%	-5%[15.4 µM]	3%	0.3%	-0.4	0.3%
CCN(CC)CCNC(=O)c1ccc(NC(=O)c2ccc3c(c2)CCC3)cc1	-5.7	4%	10%	-6%	-2.9%	-2.9	0.0%
COCCN1C(=O)CC(NNC(=O)c2ccc(S(=O)(=O)N3CCCC3)cc2)C1=O (configuration not stated)	-2.0	.	-6%[15.4 µM]	27%	.	0.9	1.8%
O=C(O)c1cn[nH]c1-n1cnnn1	-0.5	6%	-3%	-4%	-3.6%	-1.1	-38%[38.3 µM]
COc1ccccc1NC(=O)COc1ccc(C(=O)NCC2CCCO2)cc1OC (configuration not stated)	.	-12%	-3%	.	1.0%	8.6	1.5%
COc1ccc(S(=O)(=O)NCC2CCCN(C(=O)c3cccs3)C2)cc1 (configuration not stated)	-4.0	-3%	12%[15.4 µM]	12%	-22%	14	1.3%
Cc1ccc(S(=O)(=O)N(C)C)cc1NC(=O)CN1C(=O)NC(Cc2ccccc2)C1=O (configuration not stated)	.	8%	5%	.	-1.8%	-5.1	3.5%
C/C(=N\NC(=O)c1ccccc1F)c1ccc2c(c1)Nc1ccccc1S2	4.5	?	42%	-15%	2.7%	?	7.8%
CN(Cc1ccccc1F)C(=O)CCCNC(=O)c1ccc(Cl)cc1	0.3	6%	-22%	18%	.	4.5	-0.3%
COc1ccc(NC(=O)c2ccc(OC)cc2)cc1	3.0	12%	15%	2%	-5.5%	-2.2	1.6%
CCOC(=O)c1cnc(SSc2ncc(C(=O)OCC)c(N)n2)nc1N	-3.3	10%	-4%	7.9µM*	-4.9%	0.4	-0.1%
C=CCN1C(=O)C2(OCCCO2)c2cccc(C)c21	6.8	9%	11%	0%	-3.7%	-4.3	3.3%
O=C(Cn1cnc2c(OCc3ccccc3)ncnc21)NCCN1CCOCC1	.	7%	.	.	0.3%	-0.2	0.7%
COc1ccc([C@@H]2COc3c(ccc4c3C=CC(C)(C)O4)C2)c(OC)c1	.	4%	.	.	-7.1%	-1.5	2.3%
CCCCN=C1NC(=O)C(CC(=O)Nc2ccc(Cl)cc2)S1 (configuration not stated)	-1.6	10%	-26%	6%	-0.5%	-2.6	-0.8%
COc1ccc(S(=O)(=O)N2CCC(C(=O)N3CCc4ccccc4C3)CC2)cc1OC	-3.5	-21%	-17%	1%	-0.8%	-0.6	-0.2%
Cc1ccc(Cl)cc1N(CC(=O)NCc1ccccc1)S(C)(=O)=O	?	4%	-14%	12%	0.1%	3.8	-1.0%
CC(C)CN1C(=O)c2ccc(NC(=O)C3CC3)cc2C1=O	-5.1	0%	19%	18%	-16%	-2.1	1.3%
O=C(c1ccncc1)N1CCC[C@@]2(CCN(c3ccccc3)C2)C1	-10	.	.	6%	.	.	-0.9%
CN(CC1CCOCC1)C(=O)CC1C(=O)NCCN1C/C=C/c1ccccc1 (configuration not stated)	-4.2	3%	?	12%	.	-0.9	2.4%
Cc1ccc(-c2nc(SC(C)C(=O)N3CCCC3)n[nH]2)cc1 (configuration not stated)	.	3%	-25%	.	-2.0%	-4.2	-0.4%
Cc1ccc(C(=O)NCc2nnc(SCC(=O)Nc3sc4c(c3C#N)CCCC4)n2C)cc1	6.4	?	-1%	0%	-1.4%	-1.3	-0.8%
Cc1ccc(S(=O)(=O)Oc2ccccc2N2C(=O)C3C4CCC(C4)C3C2=O)cc1 (configuration not stated)	15	6%	-2%	9%	.	1.6	-1.4%
CCC(CC)C(=O)OCC(=O)Nc1cccc([N+](=O)[O-])c1	0.9	-12%	-9%[15.4 µM]	0%	-0.3%	-6.9	4.4%
COc1ccc(-c2ccc(CN3C(C)C(=O)N(Cc4cn(CCC5OCCO5)nn4)CCS3(=O)=O)cc2)cn1 (configuration not stated)	.	.	?	.	-4.2%	-1.5	-1.2%
O=C(Oc1cccc(-n2cnnn2)c1)c1ccco1	6.1	4%	-5%	2%	2.8%	-3.5	5.2%
COc1ccc(C(C(=O)NCC2CCCO2)N(C(=O)CNC(=O)c2ccco2)c2ccccc2)cc1OC (configuration not stated)	-2.4	-4%	23%[15.4 µM]	-2%	.	-1.9	0.5%
Cc1ccc(OCC(=O)NCCO)cc1C	1.8	3%	-37%[inhibitor]	1%	0.4%	-4.0	.
CC(C)Oc1cc(F)ccc1-c1cc(C(=O)Nc2ccc(F)cc2)[nH]n1	.	.	.	.	9.7%	4.5	1.7%
C=C1CCC[C@]2(C)C[C@H]3OC(=O)C(CNC(CC)CO)[C@H]3CC12 (some centres not stated)	0.0	-12%	-3%[15.4 µM]	5%	-0.1%	-3.0	-3.5%
Cc1ccc2c(c1)N(CC(=O)N1CCCCC1)C(=O)C(C)O2 (configuration not stated)	-0.5	0%	-28%	14%	.	-2.5	1.7%
COc1ccc(S(=O)(=O)N(C)C)cc1NC(=O)COC(=O)CC1CCCC1	-0.9	2%	-25%	8%	-0.9%	-6.5	3.9%
O=C1c2ccccc2S(=O)(=O)c2cc(-c3nn[nH]n3)ccc21	.	.	12%	.	-1.4%	-4.8	3.1%
Cn1c(=O)c2cc(NC(=O)OCCF)ccc2n1Cc1cccc(C(F)(F)F)c1	.	.	.	.	5.1%	7.1	0.5%
O=C(NC1CC1)C1CCN(C2CCN(C(=O)Cc3ccc4c(c3)OCO4)CC2)CC1	-3.8	6%	-44%[inhibitor]	-20%	.	0.8	5.1%
CC1=NN(c2ccccc2)C(=O)/C1=C\N(O)c1ccccc1	4.9	-6%	-28%	-5%	1.1%	0.5	-0.1%
CCC(C)(C)NC(=O)CN(Cc1ccccc1Cl)C(=O)CCC(=O)Nc1cc(C)ccn1	-0.6	-12%	0%[15.4 µM]	20µM*	.	-2.1	0.3%
Cc1cc(NC(=O)c2noc3c2CCc2ccccc2-3)n(-c2ccccc2)n1	2.2	7%	?	14%	-4.2%	1.6	3.5%
Cc1ccccc1CSCc1ccc(C(=O)NCCCN2CCOCC2)o1	1.9	4%	16%	5%	-1.2%	-6.3	0.9%
CN(C(=O)Cn1nnc(-c2cccnc2)n1)C1CCCCC1	-2.0	10%	19%	18%	-2.7%	-2.9	-0.5%
CC(=O)c1ccc(NC(=O)C(C)Oc2ccc(N(C)S(=O)(=O)c3ccc(C)cc3)cc2)cc1 (configuration not stated)	.	?	-15%	.	-1.3%	7.0	-0.3%
C/C(=N/OC(=O)c1c(F)cccc1F)c1nccs1	0.7	-3%	3%	7%	-0.4%	-2.3	5.7%[38.3 µM]
O=C(CS(=O)(=O)c1ccccc1Cl)N1CCOCC1	.	11%	-40%	12%	0.6%	-2.1	0.8%
COc1ccc(OCc2cc(C(=O)NCC3(C)COC3)no2)c(Cl)c1	-3.2	1%	14%	-6%	-2.9%	-2.5	6.5%
CC(OC(=O)c1cccs1)C(=O)NCc1ccccc1 (configuration not stated)	?	6%	?	10%	-3.9%	0.8	-1.4%
Cc1ccc(C2CC(C(F)F)n3ncc(C(=O)Nc4c(C)nn(Cc5c(F)cccc5Cl)c4C)c3N2)cc1 (configuration not stated)	-0.4	?	-22%	10%	1.3%	-0.1	0.8%
Cc1ccc(NC(=O)COc2ccc(/C=N/NC(=O)CSCc3ccccc3)cc2)cc1	-0.5	-9%	1%	-5%	-7.9%	1.8	5.6%[38.3 µM]
Cc1ccc2[nH]c(=O)c3cc(C(=O)N(C)Cc4ccco4)sc3c2c1	1.0	-20%	-69%[inhibitor]	-29%	3.5%	-5.8	-0.6%

Source: PubChem BioAssay (National Center for Advancing Translational Sciences (NCATS))
